HPGD block – HPGD (human) dehydrogenase inhibition. Potency, µM, without a hit: at the highest dose activity change, negative = inhibition, hits mostly inhibitors. P15428. purified HPGD, NADH fluorescence kinetic, PGE2 substrate. hit rate 4.3% among 150,000. AID 894; active = well fitted inhibition curve with a large enough effect (not every such curve was filed as active); inconclusive = small, poorly fitted or top-dose-only effect, or another doubt; inactive = no such curve, though single readings can be large or run the other way;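 note: top concentration of the series not given in the record; plate controls included wells without enzyme; inactives centre near -10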
Target sequence (P15428 whole entry, looked up): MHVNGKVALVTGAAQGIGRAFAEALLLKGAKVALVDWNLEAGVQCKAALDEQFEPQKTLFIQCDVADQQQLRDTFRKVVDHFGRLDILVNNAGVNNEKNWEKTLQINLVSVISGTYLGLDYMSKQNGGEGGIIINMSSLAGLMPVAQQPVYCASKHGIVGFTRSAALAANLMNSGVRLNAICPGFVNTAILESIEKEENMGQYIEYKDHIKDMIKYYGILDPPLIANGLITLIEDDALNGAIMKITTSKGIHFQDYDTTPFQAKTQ
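20 nM HPGD preincubated 15 min at room temperature with compound in 50 mM Tris-HCl pH 8, 0.01% Tween 20. Started with 1 mM NAD+ and 30 uM prostaglandin E2; NADH fluorescence (360/450 nm) read 5 times over 30-s intervals, last minus first.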
* hit, by the source's call; ? = inconclusive. % is set by controls: 0 for no effect and ±100 for the full control effect; potency is the fitted concentration of half-maximal effect. These rows are one share of the data; the hit share may differ from the screen's.

molecule | HPGD block
COc1cccc(C2/C(=C(\O)c3c(C)nc4c(C)cccn34)C(=O)C(=O)N2CCCN(C)C)c1OC (centres undefined) | -7.1%
COc1cc(NC(=O)c2ccc(F)cc2)c(OC)cc1Cl | -2.9%
CCOC(=O)N1CCC(=NNC(=O)COc2cccc(C)c2)CC1 | -3.7%
O=C1NCCCC1C(=O)Nc1ccccc1C(F)(F)F (centres undefined) | -3.1%
CC(O)C(=O)NCCOCCOCCNC(=O)C(C)O (centres undefined) | -10.9%
COc1cc(NC(=O)C2=C(N3CCOCC3)/C(=C\c3ccc(Br)cc3)CC2)cc(OC)c1OC | -17.1%
COc1ccccc1NS(=O)(=O)c1cccc(NC(=O)Nc2cccc(Cl)c2)c1 | -21.1%
COC(=O)c1ccc(Oc2nc(Nc3ccc(F)cc3)nc(N3CCCC3)n2)cc1 | -5.4%
CC1=[N+](C)c2ccc3ccccc3c2C1(C)C | -16.6%
O=C1NC2(CCCCC2)N=C1c1ccccc1 | 0.5%
CCCC(=O)N1c2ccccc2[C@@H](N(C(C)=O)c2ccccc2)C[C@H]1C | -11.1%
C#CCOC(=O)CCCNc1ccc([N+](=O)[O-])cc1[N+](=O)[O-] | -14.3%
CCCCNC(=S)NNC(=O)c1csc(C)c1 | 0.4%
COc1ccc(CN2CC(C(=O)N3CCOCC3)CC2=O)cc1 (centres undefined) | -0.9%
O=C(NC1CCCCC1)C(c1ccccc1)N(Cc1ccco1)C(=O)Cn1cnc2ccccc21 (centres undefined) | -3.4%
CCCCNS(=O)(=O)c1cccc(S(=O)(=O)N2CCCC2)c1 | -4.3%

The list goes on (6 carried over from the part before).
molecule | HPGD block
CCCC(=O)N1c2ccccc2[C@@H](N(C(C)=O)c2ccccc2)C[C@H]1C | -11.1%
C#CCOC(=O)CCCNc1ccc([N+](=O)[O-])cc1[N+](=O)[O-] | -14.3%
CCCCNC(=S)NNC(=O)c1csc(C)c1 | 0.4%
COc1ccc(CN2CC(C(=O)N3CCOCC3)CC2=O)cc1 (centres undefined) | -0.9%
O=C(NC1CCCCC1)C(c1ccccc1)N(Cc1ccco1)C(=O)Cn1cnc2ccccc21 (centres undefined) | -3.4%
CCCCNS(=O)(=O)c1cccc(S(=O)(=O)N2CCCC2)c1 | -4.3%
Cc1c(C)n(C(=O)CN2CCN(c3ccccn3)CC2)c2ccccc12 | -3.9%
COc1ccccc1-c1nnn(C/C(N)=N/O)n1 | -1.3%
CC(=O)N=c1sc2nc3ccccc3nc2n1N(C(C)=O)C(C)=O | ?
NC(N)=NC[C@H](N)C(=O)O | -9.3%
O=C(NN=C1CCN(Cc2ccccc2)CC1)C(O)c1ccccc1 (centres undefined) | -0.7%
Cc1ccc(S(=O)(=O)N2CCC(C(=O)NCCCOC(C)C)CC2)cc1 | -12.5%
CC(C)OC(=O)Cn1cnc2ccc(Br)cc2c1=O | -11.0%
COc1ccc(-c2csc(N3CCN(Cc4ccc5c(c4)OCO5)CC3)n2)cc1 | -13.0%
O=C(c1cccs1)N1CCN(C(=O)C(c2ccccc2)c2ccccc2)CC1 | -8.7%
CCOC(=O)C1CCCN(C(=O)c2sc3nc(-c4ccc(OC)cc4)cn3c2C)C1 (centres undefined) | -17.1%
CCCNC(=O)c1ccccc1NS(=O)(=O)c1ccc(OC)c(OC)c1 | ?
CCCNC(=O)OC[C@H]1O[C@H](CCO/N=C/C[C@@H]2C=C[C@H](OC(C)=O)[C@@H](COC(C)=O)O2)C=C[C@@H]1Oc1ccc(OC)cc1 | -12.8%
COc1ccccc1N1CCN(C(=O)c2ccc3[nH]c4c(c3c2)CCCC4)CC1 | -11.3%
Cc1nn2cc(-c3ccc(N)cc3)nc2s1 | 1.5%
CC(C)C(c1nnnn1C1CCCC1)N1CCN(c2ccccc2F)CC1 (centres undefined) | -10.6%
CCC(=O)NC(Nc1cc(C)cc(C)n1)(C(F)(F)F)C(F)(F)F | -7.5%
CC(C)(C)NC(=O)c1cccc(NC(=O)Cc2ccc(Br)cc2)c1 | 2.4%
COc1cc2c(cc1OC)-c1cc(OCc3ccccc3Cl)nc(=O)n1CC2 | ?
Clc1ccccc1-c1nnc2sc(-c3ccccn3)nn12 | -26.4%
CSC(=Nc1ccccc1)C1=C(O)COC1=O | -1.7%
Cc1nn(C)c(C)c1/C=C(\C#N)C(N)=O | -17.2%
Cc1ccc(S(=O)(=O)CNC(=S)c2cccc(Cl)c2)cc1 | -3.0%
Cc1nn(Cc2ccc(Cl)c(Cl)c2)c(C)c1NC(=O)c1cc(-c2ccc3c(c2)OCO3)on1 | ?
Cc1cccc(N2CCN(Cc3c(C)n(C)n(-c4ccccc4)c3=O)CC2)c1C | 3.0%
O=C(Oc1ccc(/C=N/Nc2ccccc2)cc1)c1ccccc1 | -21.6%
CC(=O)Nn1cc2c(c1-c1ccccc1)c(=O)n(C)c(=O)n2C | ?
O=C(CSc1nc2ccccc2c(=O)n1-c1ccc(F)cc1)Nc1ccc2c(c1)CCC2 | -5.0%
CC1Sc2ccc(C(=O)O)cc2NC1=O (centres undefined) | -22.4%
CCCOC(=O)c1cccc(NC(=O)COc2ccc([N+](=O)[O-])cc2)c1 | -3.9%
Cc1ccc2nc(C3CCN(C(=O)c4ccco4)CC3)[nH]c2c1 | -5.3%
N#CC1(Cc2ccccc2)c2ccccc2C=CN1C(=O)c1ccccc1 (centres undefined) | -7.6%
O=C1CC(N2CCCCC2)C(=O)N1c1ccccc1 (centres undefined) | -9.7%
CSc1ccccc1NC(=O)Nc1cccc(Cl)c1Cl | -6.3%
Cc1cc(=O)oc2cc(OCC(=O)N3CCOCC3)ccc12 | ?
NC[C@@H](O)CSCc1ccc(Cl)cc1 | -4.6%
CCOCC(=O)Nc1nc2ccc(OCC)cc2s1 | -5.1%
Cn1c(NC(=O)C(C)(C)Oc2ccc(Cl)cc2)cc(=O)n(C)c1=O | -10.8%
CCOC(=O)N1CCN(c2cc(=O)n(Cc3ccc(F)cc3)c(=O)[nH]2)CC1 | -9.6%
c1ccc(CCn2c(SCc3ccccc3)nnc2-c2ccncc2)cc1 | -8.0%
COc1cccc(NC(=S)N2CCN(C(c3ccccc3)c3ccccc3)CC2)c1 | -6.9%
CCN1CCN(c2ccc(NC(=O)c3cccc4ncccc34)cc2)CC1 | -1.6%
COc1ccc(NC(=O)c2ccc3ccccc3n2)cc1S(=O)(=O)N1CCCCC1 | -9.9%
COc1ccc2[nH]c(=O)c(CN(C(=O)NC3CCCCC3)C3CCCC3)cc2c1 | -15.2%
Cc1cccc(C)c1NC(=O)C(NC=O)c1ccccc1 (centres undefined) | 2.5%
C=CCn1c(=O)c2ccc(C(=O)NCc3ccccc3)cc2n(Cc2ccc(C)cc2)c1=O | -25.9%
CCNS(=O)(=O)c1cc(OC)c(Cl)cc1OC | 2.4%
O=C(NCc1ccco1)C1CCN(S(=O)(=O)c2cccc3cccnc23)CC1 | -10.1%
O=C(Nc1ccc2c(c1)OCO2)C1CCCN1C(=O)OCc1ccccc1 (centres undefined) | 3.0%

Next section:
| Structure | HPGD block |
| --- | --- |
| O=C(CN1C(=O)c2ccccc2C1=O)N1CCOCC1 | -9.8% |
| CC(N)=NCCC[C@H](N)C(=O)O | 1.7% |
| Cc1cc2n(n1)C(c1c[nH]c3ccccc13)Nc1ccccc1-2 (centres undefined) | -26.6% |
| COc1ccc(NC(=O)[C@@H]2[C@@H]3C(=O)N(C4CCCCC4)C(=O)[C@@H]3C3c4ccccc4C=CN32)cc1 (some centres undefined) | -27.8% |
| COC(=O)C1=C(CSc2nc3c(cc2C#N)CN(C)CC3)OC(N)=C(C#N)C1c1ccc(F)cc1 (centres undefined) | ? |
| COc1ccc2[nH]c(=O)c(CN(CCc3cccc(C)c3)C(C)=O)cc2c1 | ? |
| CSc1nc(N)c2ncn([C@@H]3O[C@H](COP(=O)(O)OP(=O)(O)OP(=O)(O)O)[C@H](O)[C@H]3O)c2n1 | -16.1% |
| O=C(NC1CCN(C(=O)NCc2ccccc2)CC1)c1ccco1 | -18.4% |
| CC(C)(C)c1ccc(S(=O)(=O)N2CC(=O)Nc3ccccc32)cc1 | -14.4% |
| COc1cccc(-c2nnn(CC(=O)Nc3ccc(C)cc3C)n2)c1OC | -5.4% |
| C=C(C)c1cccc(C(C)(C)NC(=O)N2CCCCC2CC)c1 (centres undefined) | 5.4% |
| CCCn1c(=S)[nH]c2cc(C(=O)N3CCCC(C(=O)OCC)C3)ccc2c1=O (centres undefined) | -14.4% |
| CCCCn1nc(NC(=O)c2cccs2)c2cc3ccccc3nc21 | ? |
| Cc1cc2c(cc1C)N(C(=O)CSC1=NCCS1)C(C)(C)c1ssc(=S)c1-2 | -14.9% |
| COc1cccc2cc(C(=O)N3C(C)CCCC3C)c(=O)oc12 (centres undefined) | 28.2µM* |
| Cc1c(C(=O)NNS(=O)(=O)c2ccccc2Cl)sc(=S)n1C | -10.5% |
| Cn1c(=O)n(C)c2cc(S(=O)(=O)NCCO)ccc21 | -2.2% |
| CCC1CCCCN1c1nc(-c2ccncc2)nc2ccccc12 (centres undefined) | ? |
| O=C(Oc1ccc(Br)cc1)c1cncc(Br)c1 | -2.5% |
| O=C(Nc1ccc2nc3n(c(=O)c2c1)CCCC3)c1ccccc1[N+](=O)[O-] | -6.9% |
| CC(C)CCNC(=O)CNC(=S)N(Cc1ccccc1)Cc1cccnc1 | -14.1% |
| N#C/C(=C(/O)c1ccco1)c1nc2ccccc2s1 | -17.1% |
| Nc1ccn([C@H]2O[C@H](CO)[C@@H]3[O][Sn]([c]4ccccc4)([c]4ccccc4)[O][C@H]32)c(=O)n1 | -17.5% |
| CSc1nsc(SC)c1NC(=O)OCCc1ccccn1 | -6.7% |

An excerpt from above in order of the HPGD block value, highest first.
| Structure | HPGD block |
| --- | --- |
| Cn1c(=O)n(C)c2cc(S(=O)(=O)NCCO)ccc21 | -2.2% |
| O=C(Nc1ccc2nc3n(c(=O)c2c1)CCCC3)c1ccccc1[N+](=O)[O-] | -6.9% |
| CC(C)CCNC(=O)CNC(=S)N(Cc1ccccc1)Cc1cccnc1 | -14.1% |
| Nc1ccn([C@H]2O[C@H](CO)[C@@H]3[O][Sn]([c]4ccccc4)([c]4ccccc4)[O][C@H]32)c(=O)n1 | -17.5% |

Next results
| Structure | HPGD block |
| --- | --- |
| COc1ccc(C(=O)N2CC3(CC(c4cccc([N+](=O)[O-])c4)=NO3)C[C@H]2C(=O)NCC(N)=O)cc1 (some centres undefined) | ? |
| COc1ccc(CCNC(=O)c2nnn(-c3cc(C)cc(C)c3)c2N)cc1OC | -9.0% |
| CCCc1cc(C(=O)O)c2ccccc2n1 | -11.0% |
| Nn1cc(-c2ccccc2)nc1SCC(=O)NC1CCS(=O)(=O)C1 (centres undefined) | -0.2% |
| CCCSc1nnc(C(C)C)n1N | -16.0% |
| CCOC(=O)/C(=C\c1cccnc1)C(=O)c1cc(C(C)=O)c(Nc2ccccc2)s1 | 20µM* |
| O=C1/C(=C/c2c[nH]c3ccccc23)CCC/C1=C\c1c[nH]c2ccccc12 | -25.3% |
| Cc1c(NC(=O)COC(=O)C2CC3C=CC2C3)c(=O)n(-c2ccccc2)n1C (centres undefined) | -0.2% |
| Cc1noc(C)c1C(=O)N1CCC2(CC1)CN(c1ccccc1)C2 | -1.7% |
| CCSc1nnc(NC(=O)c2cccc3ccccc23)s1 | -28.8% |
| Cc1cccc(N(C(=O)C(F)(F)F)C(C(=O)NC2CCCCC2)c2cccs2)c1 (centres undefined) | -4.4% |
| O=C(NCc1ccoc1)c1ccc(NC(=O)c2ccccc2Cl)cc1 | -24.8% |
| O=C(NC1CCCCC1)C(Cc1ccccc1)N1C(=O)C2C3CCC(C3)C2C1=O (centres undefined) | 4.2% |
| COC(=O)C(C)Sc1ccc2nnc(-c3ccc(F)cc3)n2n1 (centres undefined) | -9.8% |
| CCOC(=O)c1cnn(-c2nc(-c3ccccc3F)cs2)c1C(F)(F)F | ? |
| O=C(COc1ccc(S(=O)(=O)N2CCCC2)cc1)NCc1ccco1 | -10.3% |
| O=C(CCN1C(=O)COc2ccccc21)N1CCN(c2ccccn2)CC1 | -15.0% |
| O=C(N/N=C/c1ccccc1[N+](=O)[O-])c1ccc(COc2ccccc2-c2ccccc2)cc1 | -8.8% |
| O=C(NCCCN1CCCC1=O)c1ccc2c(c1)OCO2 | ? |
| CCCCc1c(O)nc(SCC(=O)c2ccccc2)[nH]c1=O | -4.2% |
| Cc1cccc(-n2c(N)cc(=O)nc2SCC(=O)NC2CCCCC2)c1 | -3.3% |
| Cc1ccccc1OCc1nc2ccccc2c(=O)n1/N=C/c1ccco1 | -9.0% |
| CCOC(=O)c1[nH]c2ccc(F)cc2c1NC(=O)CCN1CCSCC1 | -22.5% |
| CCOC(=O)c1c(NC(=O)Cc2cccs2)sc(C(=O)NC2CCCCC2)c1C | -18.6% |
| O=C(CSc1ccccn1)Nc1ccccc1F | 17.8µM* |
| CCn1c(Cc2ccccc2)nnc1SCC(=O)Nc1ccccc1 | -15.7% |
| Cc1ccccc1OCc1nnc2n1CC(C)S2 (centres undefined) | -8.7% |
| CCOC(=O)COc1c(OC)cc(Cl)cc1C1Nc2ccccc2C(=O)N1c1ccc(F)cc1 (centres undefined) | ? |
| COc1ccc(/C=N/O)cc1COc1ccc(NC(C)=O)cc1 | 25.1µM* |
| O=C(/C=C/c1cccc(Br)c1)N1CCN(c2cccc(C(F)(F)F)c2)CC1 | -8.9% |
| COc1cc(S(=O)(=O)N2CCN(Cc3ccc4c(c3)OCO4)CC2)c(C)cc1C | -10.8% |
| CCCOc1ccc(C2C(=O)N(C3CCCCC3)CC(=O)N2C2CC2)cc1OC (centres undefined) | -0.3% |
| CC/S(C)=N/S(=O)(=O)c1ccc(C)cc1 (centres undefined) | -6.6% |
| CC1(C)SC(=S)N(NC(=O)Nc2cccc3ccccc23)C1N(O)C(=O)Nc1ccccc1 (centres undefined) | -4.4% |
| O=C(NNC(=S)NC(=O)c1ccccc1[N+](=O)[O-])c1ccccc1[N+](=O)[O-] | -7.7% |
